Assay outcomes as filed in PubChem BioAssay.
TRPV1 potentiator: potentiators of human vanilloid receptor 1 (TRPV1). TRPV1-expressing cells, Fluo-8 calcium influx, capsaicin EC20 potentiation; host cell line not named in the record; control for the full effect not named in the record. AID 540277. potentiation, % at 8.33 µM. 0.02% of 320,000 active. Q8NER1; active means potentiation above 80%; inconclusive means 30% to 80%; inactive means below 30%; further: 0% is about no effect
Target sequence (Q8NER1 whole entry, looked up): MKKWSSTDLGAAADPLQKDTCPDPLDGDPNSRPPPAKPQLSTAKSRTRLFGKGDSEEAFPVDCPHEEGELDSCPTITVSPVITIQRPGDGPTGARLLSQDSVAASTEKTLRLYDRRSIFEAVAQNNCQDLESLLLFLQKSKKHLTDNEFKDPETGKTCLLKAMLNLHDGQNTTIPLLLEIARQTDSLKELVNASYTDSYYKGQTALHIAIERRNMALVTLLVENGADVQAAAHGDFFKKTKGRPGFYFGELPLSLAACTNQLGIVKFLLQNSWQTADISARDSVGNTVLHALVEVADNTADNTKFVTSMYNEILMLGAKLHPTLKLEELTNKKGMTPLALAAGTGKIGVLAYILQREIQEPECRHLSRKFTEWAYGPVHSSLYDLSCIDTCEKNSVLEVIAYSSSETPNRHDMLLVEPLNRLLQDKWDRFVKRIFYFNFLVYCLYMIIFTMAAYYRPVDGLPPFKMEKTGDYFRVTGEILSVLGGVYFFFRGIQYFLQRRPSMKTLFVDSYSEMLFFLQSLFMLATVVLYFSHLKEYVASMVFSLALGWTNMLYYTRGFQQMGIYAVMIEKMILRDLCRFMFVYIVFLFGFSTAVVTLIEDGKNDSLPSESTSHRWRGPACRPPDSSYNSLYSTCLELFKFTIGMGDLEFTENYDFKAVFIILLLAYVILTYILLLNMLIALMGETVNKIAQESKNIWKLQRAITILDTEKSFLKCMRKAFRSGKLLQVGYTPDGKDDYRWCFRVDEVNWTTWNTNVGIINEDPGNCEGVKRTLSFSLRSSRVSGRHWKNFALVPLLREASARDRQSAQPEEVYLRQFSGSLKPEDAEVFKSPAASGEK
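TRPV1-expressing cells were cultured overnight at 35.5C and loaded with Fluo-8 calcium dye for 40 to 90 min at room temperature. After a 10 s baseline, compound was added and calcium influx was read kinetically for 3 min (ex 480/em 520 nm).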
Sfp inh: inhibitors of Bacillus subtilis Sfp phosphopantetheinyl transferase | Q9F4F7 | Biochemical Sfp PPTase activity, qHTS | Potency, µM, for inactives: max response, negative = inhibition, usual class: inhibitors | 3.5% of 310,000 active | AID 1490; active means well fitted inhibition curve with a large enough effect; inconclusive means small, poorly fitted or top-dose-only effect, or another doubt; inactive means no such curve, though single readings can be large or run the other way;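 further: the enzyme is Sfp with the accession as filed and its product quenches rhodamine fluorescence; potency means the concentration at half of the fitted maximal effect; 0% = enzyme reaction without inhibitor and -100% = no enzyme wells; top concentration of the series not given in the record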
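Step 1, compound plus 15 nM Sfp-PPTase, 15 min, room temperature. Step 2, add rhodamine-CoA (5 uM) and BHQ-2-YbbR (12.5 uM). Step 3, read 525/598 nm fluorescence at 0 and 30 min.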
gsp agonist: activates gsp, the McCune-Albright syndrome mutation. gsp mutant cells, cAMP HTRF, 30 min; control for the full effect not named in the record. Potency, µM (series often up to 76.9 µM), for inactives: at the highest dose activation (cAMP increase), hits mostly activators. 0.13% of 340,000 active; active = well fitted activation curve with a large enough effect; inconclusive = small, poorly fitted or top-dose-only effect, or another doubt; inactive = no such curve, though single readings can be large or run the other way; cell line not stated here;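 further: phosphodiesterase inhibitor Ro 20-1724 added with compounds to block cAMP breakdown; potency means the concentration at half of the fitted maximal effect; nearly all actives have a fitted effect of over 60% in size; about a fifth of the inactives were tested at one dose only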
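Cells in DMEM/10% FBS with G418 were pretreated with compounds in DMSO plus […] (300 uM stock) for 30 min at 37C. cAMP was measured by HTRF (cAMP-d2 plus anti-cAMP antibody-K) after 30 min at room temperature.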
Menin MLL FP FL: inhibitors of human menin-MLL interaction, wild-type MLL peptide | 290,000 tested, under 10 active | FP activity change, % at 61.4 µM | Fluorescence polarization, fluorescein-MLL peptide displacement from menin | AID 1766; inconclusive = falling polarisation curve, or a change in total fluorescence; inactive = total fluorescence flat and polarisation flat or rising; no compound was filed as active; the % refers to the polarisation; negative = inhibition;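 further: % of control where 0% means no effect; inhibitors lower the polarisation; unlabelled MLL peptide was the positive control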
gsp antag: antagonists of gsp mutant (McCune-Albright syndrome). gsp-mutant cells, cAMP HTRF, 30 min; control for the full effect not named in the record. Potency, µM (series often up to 76.9 µM), for the others: at the highest dose activity change, negative = inhibition, actives largely listed as inhibitors. 0.4% of 340,000 active. AID 624288; active = falling curve of any shape with a large fitted effect; inconclusive = falling curve, mostly with a smaller effect; inactive = flat or rising curve; cell line not stated here;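 further: intracellular cAMP measured with PDE inhibitor Ro 20-1724 present during compound exposure; potency means the concentration at half of the fitted maximal effect; on the % scale 0 is the no-effect control and ±100 the full control effect; nearly all actives have a fitted effect of over 65% in size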
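HTRF cAMP measurement after 30 min RT detection following 30 min, 37C compound treatment alongside […] (added as 300 uM solution) in G418-selected cells seeded at 2000/well and grown 16–24 h.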
CtBP-E1A blk: CtBP/E1A binding inhibition; AlphaScreen GST-E1A/His-CtBP binding, 1536-well; active compounds read low; control for the full effect not named in the record; AID 651724; activity change, % (test concentration not listed); 0.49% of 340,000 active; in the data active means activity change below about -65%; inconclusive means about -30% to -65%; inactive means above about -30%; further: on the % scale 0 is the no-effect control and ±100 the full control effect
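In 5 uL wells, 23 nL compound meets equimolar GST-E1A and His-CtBP (5X stock 125 nM each) for 2 h, 37 °C. Beads (5X, 50 ug/mL) then 1 h, 37 °C, dark.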
ClpP mod: qHTS Assay for Activators of ClpP; purified B. subtilis ClpP, FRET peptide cleavage, 20 min; Potency, µM (highest dose often 57.5 µM), for inactives: at the highest dose activity change, negative = active; 1.9% of 340,000 active; ATP-dependent Clp protease proteolytic subunit (Bacillus subtilis (strain 168)), P80244; active = well fitted falling curve with a large enough effect; inconclusive = small, poorly fitted or top-dose-only effect; inactive = no such curve, though single readings can be large or run the other way; further: potency means the concentration at half of the fitted maximal effect; the source files actives as falling curves though it sought activators and does not explain the sign; nearly all actives have a fitted effect of over 65% in size; many hits overshoot -100%
Target sequence (P80244 whole entry, looked up): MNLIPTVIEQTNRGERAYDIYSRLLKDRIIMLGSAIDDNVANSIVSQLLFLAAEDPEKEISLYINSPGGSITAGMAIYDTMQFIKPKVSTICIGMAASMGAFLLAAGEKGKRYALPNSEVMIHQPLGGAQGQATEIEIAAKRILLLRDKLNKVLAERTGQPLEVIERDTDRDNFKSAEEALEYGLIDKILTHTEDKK
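ClpP 10 microg/mL final, pH 8 Tris/KCl buffer with BSA, glycerol, Tween-20; compound pinned in; FRET-FV substrate; RT 20 min; Ex320/Em430; ΔFRET vs ADEP 5.8 microM, DMSO, no enzyme.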
The depositor's hits bear a star; u = inconclusive; x = not tested or not shown; & = joins results of further samples; [ ] = remark or other dose.

SMILES	TRPV1 potentiator	Sfp inh	gsp agonist	Menin MLL FP FL	gsp antag	CtBP-E1A blk	ClpP mod
NC(=O)C1CCN(C(c2ccccc2F)c2nnnn2Cc2ccco2)CC1 (stereo not given)	9	-14%	-8%	0.9	-9%	0	-2.1%
O=C(Cc1ccccc1)NNC(=S)Nc1ccccc1	4	14%	6%	-0.4	10%	2	x
COc1cccc(NC(=S)NC2CC3CCCC(C2)N3C2CCCC2)c1 (stereo not given)	-3	12%	-18%	1.0	11%	x	0.4%
COc1ccc(NC(=O)N(C)C[C@@H]2OCc3cnnn3CCCC(=O)N([C@H](C)CO)C[C@@H]2C)c(OC)c1	x	x	29%	x	x	5	-0.1%
C[C@@H]1CCC(=O)N(C[C@@H](C)CSc2ccc(Br)cc2)CC1	-4	x	1%	x	-5%	2	-0.2%&0.2%
Cc1cc(S(=O)(=O)Nc2ccccc2C(=O)O)ccc1Cl	25	15%	u	1.9	-31%	2	-17%
CCN(CC)CCNC(=O)c1ccccc1C(=O)c1ncc[nH]1	-13	u	u	4.7	7%	-1	1.4%
Cc1ccc(C(C)C)c(OCc2ccc(C(=O)N/N=C/c3cccc(O)c3O)cc2)c1	-13	-14%	5%[15.4 µM]	0.5	4%	-22	1.6%
O=C(C[C@H]1C/C=C\CC[C@H](Cc2ccc(F)cc2)C(=O)OC[C@@H](Cc2c[nH]c3ccccc23)NC1=O)NCCO	x	x	u	x	-3%	1	-1.3%
O=C(CNc1cccc2ccccc12)N/N=C/c1ccccn1	-9	4%	-3%[15.4 µM]	4.2	-14%	-7	x
Nc1c(C(=O)Nc2ccc3c(c2)OCCO3)nnn1Cc1ccccc1Cl	15	x	-4%	x	-19%	-26	-2.3%
Cc1cccc(C(=O)OCC(=O)N2CC(=O)Nc3ccccc32)c1C	x	x	6%[15.4 µM]	x	3%	-18	-2.1%
O=C(C[n+]1ccccc1)Nc1ccccc1C(=O)O	-10	4%	-24%	-2.6	3%	x	2.1%
COc1ccccc1/C=C/C=C1\Oc2c(ccc(O)c2CN2CCN(CCO)CC2)C1=O	-6	-1%	-16%	x	-21%	-27	u
COc1ccc(NC(=O)CSCC(=O)N(C)Cc2ccc3c(c2)OCCO3)cc1	2	x	28%	x	3%	-5	-0.6%
CCC12C(=O)C(CC)(C(c3ccccc3)=C1c1ccccc1)[C@@H]1C(=O)N(c3ccccc3)C(=O)C12 (stereo not given in full)	8	14%	17%	-0.2	1%	14	2.3%
Cc1cc(OCC(=O)N(C(C)C)C(C)C)cc(C)c1Br	-19	-2%	20%[15.4 µM]	4.3	-14%	-7	-12%
Cc1ccc(C(NC(=O)N2CCCCC2)=C(Cl)Cl)cc1F	4	0%	-35%[inhibitor]	2.3	-39%	16	0.9%
C=CCc1cccc2cc(NC(C)=O)c(=O)oc12	16	13%	-19%	2.2	6%	5	-25%
CCCC/C(C)=N/NC(=O)Nc1ccccc1	-2	19%	16%	-3.6	0%	9	-0.2%
COc1cc(NC(=O)CCCN2C(=O)NC(C)(C)C2=O)cc(OC)c1	23	x	-6%	x	2%	0	-0.5%
c1ccc(CNc2ncnc3scc(-c4cccs4)c23)nc1	-12	u	20%	2.0	-21%	3	-1.8%
O=S1(=O)CCN2C(=N1)SC1=C2CCN(Cc2ccccc2)C1	1	9%	10%	0.5	5%	0	-4.0%
COc1cc(CCNC(=O)c2cnn3ccccc23)cc(OC)c1OC	u	18%	u	6.6	12%	4	3.9%
O=C(COc1ccc(S(=O)(=O)N2CCOCC2)cc1Cl)N1CCOCC1	-3	11%	u	-0.8	2%	1	x
COc1ccc(NC(=O)CO/N=C2\CCCc3nonc32)cc1	3	2%	-4%	3.1	-2%	15	-0.9%
CSc1ccc(CN2CCN(Cc3ccc([N+](=O)[O-])cc3)CC2)cc1	0	-8%	-6%[15.4 µM]	-2.5	2%	-24	0.3%
COc1cc2c(cc1OC)CN(Cc1ccc(C)cc1)CC2	-14	-1%	-8%[15.4 µM]	-0.3	8%	-2	u
CC12CCC(C(=O)N3CCN(c4ncccn4)CC3)(c3nc4ccccc4nc31)C2(C)C (stereo not given)	-16	8%	10%	0.1	-3%	-3	3.2%
CC(=O)c1ccc(N2Cc3ccccc3C2)cc1	-10	0%	-2%	3.0	-7%	-1	x
C=CCSC1=N/C(=C/c2ccsc2)C(=O)N1c1ccccc1	8	-4%	-9%	3.0	7%	12	0.8%
O=C(c1ccccc1)c1coc2ccc(O)c(Cl)c12	-18	u	7%	-22	-13%	-20	-3.0%
Brc1ccccc1OCCCn1cnc2ccccc21	0	2%	17%	0.8	-11%	10	0.5%
O=C1NCCNC(=O)c2ccccc2OCCOc2ccccc21	5	18%	6%	1.8	-10%	x	-17%
CCOc1cccc(OCCn2cnc3ccccc3c2=O)c1	3	10%	-3%[15.4 µM]	-0.7	1%	-2	-1.5%
O=C(c1ccc2c(=O)n(CCc3ccccc3)c(=O)[nH]c2c1)N1CCN(c2ccc(F)cc2)CC1	-10	8%	-17%	4.9	u	4	-5.4%
CC(C)(C)n1nnnc1C(c1ccccc1F)N(Cc1ccco1)CC1CCCO1 (stereo not given)	-9	-5%	u	4.7	-21%	7	-1.7%
COc1ccc(NC(=O)C2CCN(C(=O)[C@@H]3Cc4ccccc4CN3)CC2)cc1	-23	-2%	10%	-4.1	10%	2	-1.4%
CC(C)C1C(=O)N(Cc2cn(CC3CCCCC3)nn2)CCS(=O)(=O)N1Cc1ccc(-c2ccccc2)cc1 (stereo not given)	x	x	-25%	x	x	-11	-3.2%
COc1cc(C)c(Cl)cc1S(=O)(=O)NCc1ccccn1	0	0%	11%	-1.7	0%	3	x
O=C(CSCc1ccccc1)Nc1ccc(Cl)cn1	-12	2%	2%	6.8	15%	0	-2.0%
CCCc1cc(=O)[nH]c2nnc(SCC(=O)NC3CCCC3)n12	8	x	-14%[15.4 µM]	x	4%	7	x
NC(=O)CSc1nnc(-c2ccccc2F)n1C1CC1	-5	16%	8%[15.4 µM]	0.5	3%	-2	x
CC(=O)Nc1ccc(S(=O)(=O)NCc2ccc(C(=O)NCCN3CCCCCC3)cc2)cc1	18	7%	-5%	-0.2	2%	-20	-3.4%
Cc1ccc(C2SCC(=O)N2c2ccccc2)cc1 (stereo not given)	u	-10%	-10%[15.4 µM]	-0.3	2%	3	0.7%
CCN(CC)S(=O)(=O)c1ccc(F)c(C(=O)NCCCN2CCOCC2)c1	1	3%	1%	-0.4	15%	3	0.6%
CN(C)c1ccc(C=Nc2ccccc2)cc1	-9	14%	-16%	-2.9	-1%	-5	-3.9%
CC(CC(=O)N1CCN(c2ccccc2F)CC1)c1ccccc1 (stereo not given)	14	-9%	6%	2.7	12%	5	-2.8%
COc1ccccc1CCNC(=O)C(C)n1nc(C)c2c(C)n(-c3ccccc3)nc2c1=O (stereo not given)	-13	1%	-28%	3.7	-6%	2	0.3%
CC1=C2C3OC(=O)C(C)[C@@H]3CC[C@](C)(O)C2C2C3C4C5(C12)[C@H]1OC(=O)[C@@H](C)C1CC[C@]4(C)O[C@]5(C)[C@@H]3O (stereo not given in full)	-2	6%	-16%	3.5	2%	x	1.3%
COc1ccc(CNC(=O)Nc2ccccc2)cc1	x	-8%	8%	1.5	12%	6	2.1%
COc1ccc(-c2ccccc2)cc1NC(=O)c1cccs1	-8	-21%	2%[15.4 µM]	-1.0	u	7	0.0%
N#CC(C(=O)Nc1ccccc1)=C1Nc2ccccc2N1	23	1%	-1%	14	0%	-9	-1.9%
COc1cc(/C=C2\SC(=S)N(CCC(=O)N3CCN(C)CC3)C2=O)cc(OC)c1OC	-13	-17%	-4%	3.0	-4%	0	x
CCCCn1c(N)c(N(CC(C)C)C(=O)c2cnc(C)cn2)c(=O)[nH]c1=O	7	x	4%	x	7%	5	-0.4%
C=CCn1c(SCC(=O)Nc2ccc3c(c2)CCC3)nc2ccccc2c1=O	-8	-24%	10%[15.4 µM]	12	-11%	2	x
O=C(c1ccc(Cn2c(=O)[nH]c3ccsc3c2=O)cc1)N1CCN(c2ccccc2)CC1	-2	12%	1%	1.9	-28%	x	-1.6%
CCC(Sc1nc2ccccc2c2nc3ccccc3n12)C(=O)NCc1ccco1 (stereo not given)	9	-8%	x	0.9	x	x	x
O=[N+]([O-])c1cccc2c3c([nH]c12)CCCC3	10	18%	11%[15.4 µM]	0.2	-31%	-30	0.7%
C=CCN(C(=O)CNC(=O)c1ccco1)C(C(=O)NC1CCCCC1)c1ccc(OC)cc1OC (stereo not given)	0	20%	1%	2.9	15%	10	-4.9%

Sorted by heavy-atom count (lowest first): 3 of the compounds above
SMILES	TRPV1 potentiator	Sfp inh	gsp agonist	Menin MLL FP FL	gsp antag	CtBP-E1A blk	ClpP mod
O=C(CSCc1ccccc1)Nc1ccc(Cl)cn1	-12	2%	2%	6.8	15%	0	-2.0%
O=C(Cc1ccccc1)NNC(=S)Nc1ccccc1	4	14%	6%	-0.4	10%	2	x
Cc1ccc(C(NC(=O)N2CCCCC2)=C(Cl)Cl)cc1F	4	0%	-35%[inhibitor]	2.3	-39%	16	0.9%

The listing continues:
SMILES	TRPV1 potentiator	Sfp inh	gsp agonist	Menin MLL FP FL	gsp antag	CtBP-E1A blk	ClpP mod
COC(=O)CSc1nc2ccccc2n1CC(=O)N(C(C)C)C(C)C	11	17%	-12%	-2.1	2%	1	0.8%
CCOC(CCNC(=O)c1cn(CC(C)C)c(=O)c2c1c1ccccc1n2C)OCC	-4	-14%	u	9.9	u	7	x
CCNC(=O)CC1C(=O)N(c2ccc(C)cc2)C(=O)N1CCc1sccc1C (stereo not given)	u	0%	22%	-3.2	1%	13	2.9%
COc1ccc(-c2cc(-c3ccc(Cl)cc3)n[nH]2)c(O)c1	-8	2%	3%	-3.9	-6%	0	0.1%
CCOC(=O)Cc1csc(NC(=O)CCCCCN2C(=O)c3cccc4cccc(c34)C2=O)n1	x	x	-37%[inhibitor]	x	9%	4	u
COCC1COS(=O)(=O)NC1(C)C (stereo not given)	-1	0%	x	0.5	11%	5	0.6%
